Autofluor counter – flagged as autofluorescent in microsphere protease counterscreen; compound autofluorescence counterscreen, microsphere flow cytometry; hits give high values; fluorescence intensity (test concentration not listed); 360,000 compounds, 3.1% hits; AID 624483;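 active means at least 3 SD above the mean of all compounds, about 16000 in these data; inconclusive means too few beads counted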;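 further: 100 nL of 1 mM stock went into each well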
BJeLR viability – kills HRASV12-expressing BJeLR cells. BJeLR (HRASV12) viability, CellTiter-Glo ATP luminescence, 48 h; reference of the scale not given here. inhibition, % (concentration not given with the values). 300,000 compounds, 0.17% hits;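 active means replicate mean above 50%; inconclusive means above 50% but judged a plate artefact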;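 further: 50 nL library stock added to about 25 µL; numbers are from one replicate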
ugtP null kill – kills S. aureus RN4220 lacking UgtP | S. aureus RN4220 ugtP deletion, OD600 growth, 16 h; some inactives read as strong as hits | growth inhibition, % (concentration not given with the values) | 330,000 compounds, 0.54% hits;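 active means z-score under -3 and OD600 up to 0.15 on both plates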;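 further: plate controls were untreated wells for no effect and antibiotic for full effect; wells of about 80 µL received 100 nL stock; the first replicate is given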
Mtb hypoxia rep – Mtb hypoxia fluorescent reporter inhibition; fluorescence inhibition, % (test concentration not listed); 300,000 compounds, 0.1% hits; M. tuberculosis hypoxia-regulated fluorescent reporter, fluorescence;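 active means 35 to 45% if threefold the growth effect, above 45% if 1.5-fold the growth effect; inactive means the rest, general growth blockers included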;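 further: wells of about 50 µL received 100 nL stock; 0% = vehicle wells and 100% = reference inhibitor wells; whole bacteria with a GFP reporter of the hypoxia response; strong numbers were not always called active; many hits fall short of the cut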
Sa RN4220 lethal – kills Staphylococcus aureus RN4220 | S. aureus RN4220 growth, OD600, 16 h | inhibition, % (concentration not given with the values) | 330,000 compounds, 0.33% hits;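 active means z-score of -3 or lower and OD600 up to 0.18 on both plates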;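 further: plate controls were untreated cells for no effect and reference antibiotic for full effect; stock transfer was 100 nL into about 80 µL; one replicate is shown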
PrP UTR inh – suppresses PrP 5' UTR mRNA reporter expression | cell-based PrP 5' UTR mRNA reporter, plate reader | inhibition, % (no concentration beside the values) | 340,000 compounds, 0.35% hits;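 active means every replicate at 50% or more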;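 further: 0 = median of the neutral control wells; tested in H4 reporter cells; numbers are from one replicate; inactives centre near -14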
Mtb hypoxia rep growth – also measured in Mtb hypoxia rep; calls as there; growth inhibition, %; measured here: M. tuberculosis growth (absorbance);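 0% = vehicle and 100% = reference antibiotic; read after six days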
Active calls of the source: *; ? = inconclusive; nt = not tested or not shown; & = joins results of further samples.

structure	Autofluor counter	BJeLR viability	ugtP null kill	Mtb hypoxia rep	Mtb hypoxia rep growth	Sa RN4220 lethal	PrP UTR inh
CCOC(=O)c1cc2sccc2n1CC(=O)c1ccc2c(c1)OCCO2	?	2	4	6	-2	-2.0	-33
CC(=O)NC1C(=O)N(C)c2ccc(Br)cc21 (configuration not stated)	10398	2	-2	3	14	0.0	-34
CCOC(=O)c1c(C)[nH]c(C)c1C(=O)COC(=O)c1cc(OC)cc(OC)c1	4688	-4	-1	6	7	-1.3	-16
CC1(c2ccccc2)NC(=O)N(CC(=O)N2CCN(S(=O)(=O)c3ccccc3[N+](=O)[O-])CC2)C1=O (configuration not stated)	5441	-6	10	9	2	6.2	-7
NC(=O)CNC(=O)C1CCN(S(=O)(=O)c2ccc(-n3cnnn3)cc2)CC1	4713	-3	4	7	0	5.4	-2
CC1COC(=O)C(NC(=O)OCC2c3ccccc3-c3ccccc32)CC=CCC(CC(=O)N(CCO)Cc2ccccc2)C(=O)N1 (configuration not stated)	nt	nt	-12	-2	14	0.5	nt
Cc1ccc(S(=O)(=O)NC(=O)NC(C)Cc2ccccc2)cc1 (configuration not stated)	4473	4	0	10	4	5.4	-12
C/C(=N\NC(=O)COc1ccccc1)c1cccs1	2499	-11	nt	nt	nt	nt	-36
O=C(NCc1ccco1)c1cc(S(=O)(=O)N2CCOCC2)c(Cl)cc1Cl	2393	-2	5	nt	nt	-0.9	-13
CC(NCc1ccccc1)=C(C#N)C(=O)NCc1ccccc1	nt	nt	-6	5	3	8.2	nt
O=C(CNc1n[nH]c(=O)[nH]c1=O)NN=C/C=C/c1ccccc1	nt	nt	-4	8	5	1.8	nt
C/C(N)=C(/C#N)C(=O)COC(=O)c1ccccc1Oc1ccccc1	4866	0	2	6	20	4.1	-12
CCOc1cc(C#N)c(NC(=O)CSc2nnnn2-c2ccc(OC)cc2)cc1OCC	22206*	-11	5	10	5	4.5	-26
COC(=O)c1ccc(C2C(C(=O)c3ccco3)=C(O)C(=O)N2CC2CCCO2)cc1 (configuration not stated)	3747	-5	2	12	10	0.7	-33
CCCN(CC(=O)Nc1ccccc1C)C(=O)c1ccc2c(c1)OCO2	3427	nt	7	9	3	3.2	-30
N#Cc1cc(-c2ccccc2)nnc1Oc1ccccc1	3512	7	9	nt	nt	2.0	-19

Full records from above. Values in the order: Autofluor counter | BJeLR viability | ugtP null kill | Mtb hypoxia rep | Mtb hypoxia rep growth | Sa RN4220 lethal | PrP UTR inh
Shown for CCOc1cc(C#N)c(NC(=O)CSc2nnnn2-c2ccc(OC)cc2)cc1OCC : 22206* | -11 | 5 | 10 | 5 | 4.5 | -26
Shown for N#Cc1cc(-c2ccccc2)nnc1Oc1ccccc1 : 3512 | 7 | 9 | nt | nt | 2.0 | -19

Next section:
structure	Autofluor counter	BJeLR viability	ugtP null kill	Mtb hypoxia rep	Mtb hypoxia rep growth	Sa RN4220 lethal	PrP UTR inh
O=C(CNC(=O)C12CC3CC(CC(C3)C1)C2)NCc1ccccc1	4415	-1	8	5	-5	4.5	-2
COCCn1nnnc1C(c1ccccc1)N1CCN(C(=O)c2ccco2)CC1 (configuration not stated)	4017	0	nt	nt	nt	nt	-25
COc1ccc(OP(=O)(Nc2ccccc2)Nc2ccccc2)cc1	17088*	-8	0	5	-4	2.3	-24
COCCN(C(=O)C1CC(=O)N(Cc2ccccc2)C1)c1nc(-c2ccc([N+](=O)[O-])cc2)cs1 (configuration not stated)	4012	nt	-9	-7	-11	-3.8	-7
CCn1c(CSc2n[nH]c(N)n2)nc2cc(C(=O)O)ccc21	4207	-9	15	6	10	2.9	-18
COc1ccccc1OCC(=O)Nc1cc(Cl)ccc1N1CCCCC1	3352	nt	5	7	-2	1.1	-13
O=C(O)C(Cc1ccccc1)NC(=O)N1CCOCC1 (configuration not stated)	nt	nt	-1	6	2	4.9	nt
Cc1cc(C)n(CC(=O)N2c3ccccc3Sc3ccccc32)n1	4540	-5	-8	nt	nt	3.4	-7
COc1ccc(NC(=O)COC(=O)Cc2c[nH]c3ccccc23)cc1OC	3912	1	9	5	8	5.3	68*
CCc1ccccc1NC(=O)COc1ccc(C(=S)N2CCCC2)cc1	4242	0	0	0	-3	1.9	-13
Cc1nc(-c2coc3c(CN(C)C)c(O)ccc3c2=O)cs1	5722	-2	-2	6	15	-2.8	-19
COc1ccc(OC)c(-n2nnnc2SCC(=O)NCCc2ccccc2)c1	12609	-13	-2	-1	9	-2.6	16
CCc1nnc(NS(=O)(=O)c2ccc(N/C=C\C(=O)c3cccc(OC)c3)cc2)s1	4406	6	-5	21	22	4.1	-4
CC(C)N(CCO)C(=O)CCc1nnc(Cc2cccc(C(F)(F)F)c2)o1	3267	5	4	-4	-1	1.3	-33
Cc1ccc(-c2cc(C(F)(F)F)n3ncc(C(=O)N4CCCc5ccccc54)c3n2)cc1	8050	-4	0	2	0	1.0	-6
C/C(=N\NC(=O)C1CCCN(S(=O)(=O)c2ccccc2)C1)c1cccnc1 (configuration not stated)	2826	6	nt	nt	nt	nt	-10
CCCc1nc(Cl)c(C#N)c2c1CCCC2	2393	5	-1	-2	5	13	8
O=C(Nc1ccccc1N1CCCCC1)c1ccccc1F	23407*	2	50	16	6	7.6	0
CCOc1ccc(S(=O)(=O)N2CCN(C(=O)c3cccn3C)CC2)cc1	4615	-2	4	-6	6	6.3	2
C=Cn1ccnc1P(=S)(c1ccc(Cl)cc1)c1nccn1C=C	3595	-1	4	4	7	7.0	42
COc1cc2nc(N3CCN(C(=O)OCc4ccccc4)C(C(=O)NC(C)(C)C)C3)nc(N)c2cc1OC (configuration not stated)	nt	nt	-5	-1	-4	-0.8	nt
O=[N+]([O-])c1cccc(/C=C2\CCC(/C=N/Nc3ccc4ccccc4n3)=C2N2CCOCC2)c1	2102	-10	nt	nt	nt	nt	-19
COc1cccc(C(=O)NC(=S)Nc2ccc3oc(=O)ccc3c2)c1	2516	-17	-8	3	-2	5.8	-12
C/C(=N\O)c1ccccc1C(=O)O	3009	7	nt	nt	nt	nt	5
CC(=O)c1cccc(N=Nc2c(-c3ccccc3)[nH]n(-c3ccccc3)c2=O)c1	4673	-5	-20	7	3	-1.6	-26
Cc1cccc(-c2nnc(SCc3nc4ccccc4[nH]3)n2Cc2ccco2)c1	3164	-2	8	12	12	-0.8	-27
Cc1ccccc1CNC(=O)c1ccc2nc(N3CCOCC3)sc2c1	5592	10	6	-4	7	3.8	-11
O=C(CCNS(=O)(=O)c1ccccc1)N1CCCCCCC1	5356	4	11	6	6	3.5	-20
COc1ccc(OC)c(S(=O)(=O)N2CCCC2C(=O)N2CCc3ccccc3C2)c1 (configuration not stated)	3647	2	19	16	9	-1.2	-26
Cc1ccccc1OCCN(C#N)c1nc(N(C)C)nc(N(C)C)n1	4290	0	6	8	11	10	-3
N#Cc1c(NC(=O)CSc2n[nH]c(Cc3ccccc3)n2)oc(-c2ccccc2)c1-c1ccccc1	2352	-4	8	nt	nt	-12	-26
Cc1cc(C(=O)N2CCN(c3ccccc3O)CC2)c(C)o1	?	7	-1	15	3	1.4	-16
COC(=O)[C@@H]1CCCN1C(=O)c1ccc(OC2CCN(Cc3ccccn3)CC2)cc1	5042	0	-6	-8	-35	-3.1	-2
Cc1cc(C(=O)Nc2cc(Br)ccc2O)on1	3569	-1	-12	-3	2	-6.6	-7
Cc1ccc(OCc2ccoc2C(=O)O)cc1C	3091	3	-7	nt	nt	3.5	-15
CCOC(=O)CN1C(=O)S/C(=C\c2ccc3c(c2)OCO3)C1=O	3652	-3	1	2	-1	6.1	-15
Cc1cc(C)n(-c2ccc(C(=O)Nc3cccc(S(=O)(=O)N4CCCC4)c3)cc2)n1	2244	-4	13	-1	-2	-1.0	-33
Cn1c(=O)c2c(ncn2CC(=O)OCC(=O)Nc2ccccc2)n(C)c1=O	4600	-2	3	5	2	-0.2	-29
COCCOC(=O)/C=C1/NC(=O)CS1	4510	7	0	nt	nt	2.3	-9
COc1ccc(S(=O)(=O)N2CCC(N3CCN(Cc4ccccc4)CC3)CC2)cc1	4093	-3	0	4	9	2.6	-6
O=C(CCN1CCN(c2ccccc2F)CC1)Nc1ccccc1F	3539	11	6	nt	nt	-1.4	-28
O=S(=O)(Nc1cccc(-c2nc3cccnc3s2)c1)c1cccs1	5242	-7	2	15	6	9.9	-57
Cc1ccc(NC(=O)CCC(=O)c2ccc(F)cc2)cc1Cl	3295	-3	-10	5	-1	1.2	-18
COc1ccc(CCCc2nnc(SCC(=O)Nc3ccc(OC)cc3)o2)cc1	2521	-4	10	1	-3	4.5	-6
CS(=O)(=O)N(CC(=O)Nc1ccc(F)cc1)C1CCCCC1	3860	0	-2	-6	3	0.0	-7
CCCOc1ccccc1C1NC(=O)NC(C)=C1C(=O)OCCOCC (configuration not stated)	3128	-1	3	9	3	8.0	-4
O=C(Nc1nc(C2C3CC4CC(C3)CC2C4)cs1)c1cc2cc([N+](=O)[O-])ccc2oc1=O (configuration not stated)	9828	-4	-8	1	5	19	-14
NS(=O)(=O)c1cccc(NC(=O)Cn2nc(C(=O)O)c3ccccc3c2=O)c1	2955	-5	10	-5	-6	4.5	-8
O=C(CCc1nc2ccccc2c(=O)[nH]1)Nc1cccc(S(=O)(=O)N2CCCCC2)c1	5812	1	-1	9	1	1.1	-8
COc1cc2c(cc1NC(=O)Nc1ccc(C)cc1)oc1ccccc12	2586	-12	60	10	11	8.0	-17
COc1ccc(C2CC(=O)C=C(c3cc(C)ccc3OC)C2)cc1 (configuration not stated)	nt	nt	10	10	-2	9.1	nt
O=C(O)c1ccc2c(=O)[nH]c(CCl)nc2c1	3221	-8	3	12	2	5.9	-22
Cc1ccc(NC(=S)NNc2ncc(C(F)(F)F)cc2Cl)cc1	6664	1	-2	5	-3	7.9	10
O=C(NN=Cc1sc(N2CCOCC2)nc1-c1ccccc1)c1ccc(O)cc1	nt	nt	16	9	2	20	nt
Cc1ccc(CSCCNS(C)(=O)=O)cc1	6483	0	4	9	6	3.5	-26
CCS(=O)(=O)c1nc(S(=O)(=O)c2ccc(Cl)cc2)c(NCCN2CCOCC2)s1	6016	3	3	1	11	0.3	5

Additional structures.
structure	Autofluor counter	BJeLR viability	ugtP null kill	Mtb hypoxia rep	Mtb hypoxia rep growth	Sa RN4220 lethal	PrP UTR inh
COC(=O)C1=C(C(=O)OC)[C@]2(C3CC=CCNC(Cc4ccccc4)C(=O)N3Cc3ccccc3)C=CC1O2 (some centres not stated)	nt	nt	16&27	6&12	9&14	8.7&-2.3	nt
CC(C(=O)OCc1nnc(-c2ccccc2)o1)N1C(=O)C2CCCCC2C1=O (configuration not stated)	4388	-3	0	-6	-5	4.5	-23
O=C(O)c1ccc(-n2nnnc2Oc2ccccc2C(=O)N2CCOCC2)cc1	9231	-9	0	0	6	4.4	-19
O=C(Cn1cc2c(n1)CCCCC2)Nc1ccccc1Br	4237	14	-2	5	14	0.7	-19
CCSCCc1nnc(NC(=O)Nc2cccc(C(F)(F)F)c2)s1	2552	-1	-7	-4	14	0.8	6
CCN(CC)C(=O)n1cnc(-c2ccccc2)c1-c1ccccc1	3163	12	5	0	11	5.2	-23
CC(c1ccco1)N(C(=O)c1cccs1)c1ccccn1 (configuration not stated)	7184	7	4	3	-6	5.5	-24
CCCCN(C(=O)c1ccc2c(c1)OCO2)c1ccccc1	2607	14	-2	5	8	-1.5	-9
COc1cccc(C(=O)Nc2cccc(-c3ccc4nncn4n3)c2)c1OC	3733	4	-12	4	0	4.8	-13
Cc1ccc(C=NNC(=O)c2cccs2)o1	nt	nt	-6	4	9	4.0	nt
Cc1ccc(C2=NN(C(=O)CCC(=O)O)C(c3ccc4c(c3)OCO4)C2)cc1 (configuration not stated)	3649	6	14	11	6	0.9	-12
CC(=O)N(Cc1ccccc1)c1ccccc1C(=O)O	4004	0	-2	19	7	1.0	-18
CCN(c1ccccc1)S(=O)(=O)c1cccc(C(=O)N(C)CCOc2ccccc2)c1	?	2	5	1	-4	5.2	-29

Compound activity as filed in PubChem.
